# Sfp inh = qHTS Assay for Inhibitors of Bacillus subtilis Sfp phosphopantetheinyl transferase (PPTase); 3.5% of 310,000 active; Biochemical Sfp PPTase activity, qHTS; Potency, µM, for inactives: max response, negative = inhibition, actives largely listed as inhibitors; 4'-phosphopantetheinyl transferase ffp (Bacillus subtilis), Q9F4F7; AID 1490, 2009; active = well fitted inhibition curve with a large enough effect; inconclusive = small, poorly fitted or top-dose-only effect, or another doubt; inactive = no such curve, though single readings can be large or run the other way;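 also: the enzyme is Sfp with the accession as filed and its product quenches rhodamine fluorescence; potency is read from the fitted curve at half-maximal effect; 0% = enzyme reaction without inhibitor and -100% = no enzyme wells; top concentration of the series not given in the record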
#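 Reaction rates are the 30-min fluorescence difference (ex 525, em 598 nm) in wells containing 15 nM Sfp, 5 uM rhodamine-CoA and 12.5 uM BHQ-2-YbbR at pH 7.6 with 10 mM MgCl2.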
# D2 PAM = Beta-Arrestin HTS for Positive Allosteric Modulators of the Human D2 Dopamine Receptor: Potentiators. potentiation, % (concentration not given with the values). DiscoveRx D2 beta-arrestin cells, luminescence, 90 min; 100% = 57 uM dopamine signal. D(2) dopamine receptor (Homo sapiens), P14416. AID 624464, 2012. 0.23% of 360,000 active; active = potentiation of 50% or more; inconclusive = 30% to 50%; inactive = 30% or less;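 also: compound concentration not given in the record; tested on top of an EC20 dose of dopamine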
# Target sequence (P14416 whole entry, looked up): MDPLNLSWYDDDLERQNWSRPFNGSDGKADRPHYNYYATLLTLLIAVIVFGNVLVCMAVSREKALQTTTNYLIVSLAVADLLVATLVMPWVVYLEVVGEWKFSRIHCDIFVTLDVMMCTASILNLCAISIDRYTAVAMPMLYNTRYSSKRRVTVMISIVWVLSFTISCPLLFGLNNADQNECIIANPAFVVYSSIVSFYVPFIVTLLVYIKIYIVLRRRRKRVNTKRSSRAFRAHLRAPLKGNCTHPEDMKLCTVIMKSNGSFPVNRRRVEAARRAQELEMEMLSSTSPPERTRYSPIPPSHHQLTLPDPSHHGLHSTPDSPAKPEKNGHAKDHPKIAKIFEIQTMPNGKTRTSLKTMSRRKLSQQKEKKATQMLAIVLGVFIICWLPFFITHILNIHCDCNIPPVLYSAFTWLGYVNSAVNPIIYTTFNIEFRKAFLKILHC
#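 PathHunter D2 cells, attached overnight at 37 deg C, received compound in DMSO plus dopamine at EC20 (50 nM final) for 90 min at 37 deg C. Beta-arrestin recruitment was read as luminescence after 1 h with detection reagent at ambient temperature.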
# D2 ag = Beta-Arrestin HTS for Positive Allosteric Modulators of the Human D2 Dopamine Receptor: Agonists; D(2) dopamine receptor (Homo sapiens), P14416; DiscoveRx PathHunter D2 beta-arrestin, luminescence, 90 min; 100% = 57 uM dopamine signal; activation, % (no concentration beside the values); 0.084% of 360,000 active; in the data active = activation above about 40%; inconclusive = about 15% to 40%; inactive = below about 15%; also: compound concentration not given in the record; the text of the record calls up to 30% inactive
#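 DiscoveRx PathHunter D2 beta-arrestin cells (2,100/well) attached overnight, then compound-stimulated 90 min at 37 C in HBSS/10 mM HEPES/0.1% Tween-20 buffer; beta-galactosidase complementation read by luminescence after 1 h at ambient temperature. Dopamine 57 uM final (EC100) as control.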
# CtBP-E1A blk = qHTS Assay for Inhibitors of the CtBP/E1A Interaction. CtBP / adenovirus E1A interaction (AlphaScreen). AlphaScreen GST-E1A/His-CtBP binding, 1536-well; stronger effect = lower value; control for the full effect not named in the record. activity change, % (concentration not given with the values). 0.49% of 340,000 active. AID 651724, 2012; in the data active means activity change below about -65%; inconclusive means about -30% to -65%; inactive means above about -30%; also: % is scaled to controls: 0 for no effect and ±100 for the full control effect
#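 Homogeneous bead-based format: GST-tagged E1A captured on glutathione donor beads, His-tagged CtBP on nickel acceptor beads; compounds precede bead addition by 2 h at 37 °C.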
# TRPV1 PAM = HTS Assay for Compounds that Act as Potentiators of the Vanilloid Receptor 1 | TRPV1-expressing cells, Fluo-8 calcium influx, capsaicin EC20 potentiation; host cell line not named in the record; control for the full effect not named in the record | AID 540277, 2011 | potentiation, % at 8.33 µM | 0.02% of 320,000 active | Transient receptor potential cation channel subfamily V member 1 (Homo sapiens), Q8NER1; active means potentiation above 80%; inconclusive means 30% to 80%; inactive means below 30%; also: 0% is about no effect
#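 TRPV1-expressing cells were cultured overnight at 35.5C and loaded with Fluo-8 calcium dye for 40 to 90 min at room temperature. After a 10 s baseline, compound was added and calcium influx was read kinetically for 3 min (ex 480/em 520 nm).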
# PINK1 expr mod = A Quantitative High throughput Screen to Identify Chemical Modulators of PINK1 Expression. PINK1 immunofluorescence, high-content cytometry, 24 h. Potency, µM (series often up to 76.6 µM), inactives show at the top dose activation (PINK1 increase), usual class: activators. 0.2% of 410,000 active. AID 624263, 2012; active = well fitted activation curve with a large enough effect; inconclusive = small, poorly fitted or top-dose-only effect; inactive = flat fitted curve, though single readings scatter; cell line not stated here;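 also: potency is read from the fitted curve at half-maximal effect; % of control where 0% means no effect; nearly all actives have a fitted effect of over 65% in size; a mitochondrial uncoupler was the plate control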
#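 Stable cell line, 250 cells/well, 12 h attachment; compounds pinned at 5 concentrations, 24 h; CCCP control. Fixed with nuclear dye, primary antibodies 12 h at 10 degrees C, secondary plus cell stain; laser-scanning cytometer read.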
# Six1-Eya2 inh = qHTS Assay for Inhibitors of the Six1/Eya2 Interaction; Homeobox protein SIX1 (Homo sapiens) + Protein phosphatase EYA2 (Homo sapiens), …; AlphaScreen GST-Six1/His-Eya2 binding, biochemical; stronger effect = lower value; control for the full effect not named in the record; activity change, % (test concentration not listed); 0.56% of 360,000 active; AID 651725, 2012; in the data active = activity change below about -65%; inconclusive = about -30% to -65%; inactive = above about -30%; also: % is scaled to controls: 0 for no effect and ±100 for the full control effect; compound concentration not given in the record
#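 Homogeneous AlphaScreen proximity assay pairing GST-Six1 with His-tagged Eya2 (added as 5X mix: 250 nM and 500 nM) in 50 mM Tris pH 8.0, 300 mM NaCl, 1 mM TCEP. Glutathione donor and nickel acceptor beads; 1 h, 37 °C, dark.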
# * hit, by the source's call; u = inconclusive; x = not tested or not shown; & = joins results of further samples; [ ] = another dose, or the depositor's remark. Hits appear at their usual frequency; any-hit rate near 3.7%.
# Values run as follows: Sfp inh, CtBP-E1A blk, D2 PAM, TRPV1 PAM, D2 ag, PINK1 expr mod, Six1-Eya2 inh
- COc1ccccc1C(=O)Nc1ccc2c(c1)CN(Cc1cnc(C)s1)CC2
    0%, -9, -20, 14, 1.7, 1.7%, 8
- CSCCC1(C(=O)O)NC(c2ccccc2O)C2C(=O)N(C(C)C)C(=O)C21 (stereo not given)
    79µM*, 6, -9, 4, -0.7, 0.2%, 4
- COc1cccc(CN(CC2CCCO2)C(=O)c2cc3ccccc3oc2=O)c1 (stereo not given)
    8%, -10, -13, -1, 1.8, 0.4%, -2
- O=C(O)c1ccccc1C(=O)N1N=C2/C(=C/c3cccc([N+](=O)[O-])c3)CCCC2C1c1cccc([N+](=O)[O-])c1 (stereo not given)
    -16%, -2, 0, 0, 0.6, 0.1%, -8
- COc1cccc(C(=O)NN2CC(O)=C(c3nc4ccccc4s3)C2=N)c1
    -11%, -9, -4, 5, -1.6, 0.3%, -1
- Cc1ccc(/C=C\c2nccc3c2[nH]c2ccccc23)cc1
    u, 20, -36, -4, -4.4, 0.9%&9.8%, 21
- COc1ccc(C(=O)NC2CCN(C(=S)Nc3ccc(C)cc3)CC2)cc1
    17%, -3, 5, 19, -0.3, 2.1%, 4
- Cc1cccc(OCc2nnc(SC(C)C(=O)O)n2-c2ccccc2)c1 (stereo not given)
    10%, -4, -2, -12, 0.2, 0.7%, 4
- Cc1ccc(N2C(=O)C3C(C2=O)C2C=CC3C23CC3)c([N+](=O)[O-])c1 (stereo not given)
    14%, 2, -8, 9, -2.4, -0.3%, -3
- COc1ccc(Cl)cc1NC(=O)CN1CCC(n2nnc3cc(F)ccc32)CC1
    15%, 2, -2, -3, 0.6, 4.5%, 9
- O=S(=O)(c1ccccc1Cl)N1CCCC(c2nc(-c3cccnc3)no2)C1 (stereo not given)
    11%, -19, -1, -4, -1.1, 1.3%[38.3 µM], -6
- CC(O)c1nc2cc([N+](=O)[O-])ccc2n1Cc1ccccc1 (stereo not given)
    8%, x, -2, 2, -0.1, -0.1%, -2
- Fc1cccc(F)c1CN1CCN(c2ncccn2)CC1
    -16%, 10, 21, -5, u, 15%[38.3 µM], 1
- COC(=O)c1ccc(NC(=O)c2ccc(NS(=O)(=O)c3cccc4cccnc34)cc2)cc1
    3%, 0, 8, 0, 1.0, 6.9%, 12
- CCCc1nnc(SCC(=O)NC2CC2)n1CC
    15%, 1, -9, 10, -4.1, 0.2%, 16
- CCOC(=O)c1ccc(NC(=O)C(=O)NCc2ccc(/C=C(/C#N)C(=O)NCCOC)o2)cc1
    4%, 11, 5, -21, -0.3, 8.7%, -4
- CCC(C)C(=O)NCCc1ccc(S(N)(=O)=O)cc1 (stereo not given)
    9%, 2, 3, 1, -2.6, 2.8%, -1
- CS(=O)(=O)N(CC(=O)N1CCN(c2ccccc2)CC1)c1cccc(Br)c1
    3%, 3, -11, 6, -2.1, -1.7%, -3
- Cc1c(NC(=O)C(C)OC(=O)/C=C/c2ccco2)c(=O)n(-c2ccccc2)n1C (stereo not given)
    -4%, 2, -27, -4, -1.3, 0.2%, -14
- CC(C)(C)OC(=O)N1CCC(c2c(C(=O)NC3CC3)cnn2-c2ccc(Cl)cc2)CC1
    9%, 4, -12, -8, -5.2, 1.8%, -1
- CCCC(=O)N/C(N)=N/c1nc2ccccc2o1
    6%, -8, -7, -20, -4.7, 4.8%, -3
- O=C(C1CCCN(C2CC(=O)N(c3ccc(F)cc3)C2=O)C1)N1CCCC1 (stereo not given)
    3%, 1, 11, 5, 0.2, 0.9%, -4
- COc1ccccc1Cc1c(-c2ccco2)nc2cc(C)c(Br)c(C)n12
    x, -22, x, x, x, 2.6%, -9
- COC(=O)c1ccc(NC(CC(C)C)C(=O)OC)c([N+](=O)[O-])c1 (stereo not given)
    4%, 5, -11, -7, 3.8, -0.5%, -25
- CCCOP(=O)(c1ccc(N(C)C)cc1)C(O)c1ccncc1 (stereo not given)
    0%, 3, -13, 0, -1.0, -0.3%, 2
- CC(C)=CCc1c(O)ccc2c1OC(c1ccc(O)c(O)c1)CC2=O (stereo not given)
    2%, 2, 2, -4, 8.2, 5.2%, -18
- O=C(Nc1nncs1)c1cccc(S(=O)(=O)N2CCCCC2)c1
    9%, 5, 0, -3, -3.4, 2.9%, -5
- CC(=O)NCCc1ccc(C(=O)Cn2cnc3ccccc3c2=O)cc1
    10%, 6, -4, 1, 0.5, 2.4%, -2
- O=C(COc1ccc(-c2nnco2)cc1)Nc1cc([N+](=O)[O-])ccc1F
    x, -4, -6, x, -0.7, -0.6%, -4
- C=CCn1c(N2CCCC2)nc2c1c(=O)n(C)c(=O)n2C
    6%, 6, -1, -17, -0.1, -0.4%, 0
- COC(=O)C1=NN(C(=O)c2cccc(Cl)c2)C(O)(C(C)(C)C)C1 (stereo not given)
    10%, 6, -15, 8, -20, 4.7%, 0
- CCOC(=O)CSc1nnc(NCC(=O)OC(C)C)c(=O)[nH]1
    u, 0, 2, -17, -3.8, 2.2%, 2
- Cc1ccc(Nc2nnc(-c3ccc(N4CCOCC4)c([N+](=O)[O-])c3)c3ccccc23)cc1
    -14%, -17, -12, -2, -6.7, 0.5%, -18
- Cn1nccc1C(=O)N/N=C/c1ccccc1[N+](=O)[O-]
    25%, x, -18, -2, -4.1, 0.9%, 2
- Cc1nc2sc(C(N)=O)c(N)c2c(C)c1CC(=O)c1ccccc1
    -15%, 2, -4, 2, -3.3, -0.6%, -3
- O=C(Nc1cc(S(=O)(=O)N2CCOCC2)ccc1Cl)C1CCC1
    x, 3, -18, 7, -1.7, 1.4%, 8
- CN1CCN(S(=O)(=O)c2ccc(Oc3ccc(F)cc3Br)nc2)CC1
    10%, -3, -1, -1, -0.9, -2.2%, 2
- COc1ccc(C(C)=O)cc1CN1C(=O)NC(c2ccccc2)(c2ccccc2)C1=O
    5%, 10, -24, -3, -2.6, -0.2%, 9
- O=C(N1CCN(S(=O)(=O)c2ccc(Cl)cc2)CC1)n1ccnc1
    x, 9, -2, x, -1.4, -0.7%, 3
- O=C(CCNC(=O)c1ccc([N+](=O)[O-])cc1)Nc1ccccc1N1CCCCC1
    x, 1, 11, -1, 1.1, -2.7%, -5

# No new results follow: entries from further up.
# Values run as follows: Sfp inh, CtBP-E1A blk, D2 PAM, TRPV1 PAM, D2 ag, PINK1 expr mod, Six1-Eya2 inh
- COC(=O)C1=NN(C(=O)c2cccc(Cl)c2)C(O)(C(C)(C)C)C1 (stereo not given)
    10%, 6, -15, 8, -20, 4.7%, 0
- CCOC(=O)CSc1nnc(NCC(=O)OC(C)C)c(=O)[nH]1
    u, 0, 2, -17, -3.8, 2.2%, 2
- Cc1ccc(Nc2nnc(-c3ccc(N4CCOCC4)c([N+](=O)[O-])c3)c3ccccc23)cc1
    -14%, -17, -12, -2, -6.7, 0.5%, -18
- Cn1nccc1C(=O)N/N=C/c1ccccc1[N+](=O)[O-]
    25%, x, -18, -2, -4.1, 0.9%, 2
- Cc1nc2sc(C(N)=O)c(N)c2c(C)c1CC(=O)c1ccccc1
    -15%, 2, -4, 2, -3.3, -0.6%, -3

# Shown as a hit in Sfp inh, among the entries above:
mol,Sfp inh,CtBP-E1A blk,D2 PAM,D2 ag,PINK1 expr mod,Six1-Eya2 inh
CSCCC1(C(=O)O)NC(c2ccccc2O)C2C(=O)N(C(C)C)C(=O)C21 (stereo not given),79µM*,6,-9,-0.7,0.2%,4

# Further entries follow:
# Values run as follows: Sfp inh, CtBP-E1A blk, D2 PAM, TRPV1 PAM, D2 ag, PINK1 expr mod, Six1-Eya2 inh
- FC(F)(F)c1cccc(Cn2nnnc2-c2cc(Cl)cc(Cl)c2)c1
    15%, 27, -1, -1, 1.2, 6.5%[38.3 µM], 27
- CC(C)C(NC(=O)c1ccc(C(C)(C)C)cc1)C(=O)OCC(=O)NC(=O)Cc1ccccc1 (stereo not given)
    6%, -2, -7, 26, -1.2, 1.5%, -3
- COc1ccc(-c2ccc3c(c2)O/C(=C\c2ccsc2)C3=O)cn1
    x, 1, -8, x, -1.7, 20%, 0
- Cc1nn(Cc2ccccc2)c2sc(C(=O)NCc3cccnc3)cc12
    -6%, -2, -27, -17, -0.5, 0.6%, -4
- Cc1ccsc1-c1cc2nc(Nc3ccc(F)cc3)n(C)c(=O)c2s1
    x, 1, -9, x, -3.6, 3.0%, 2
- COc1ccc(CCNC(=O)C(=O)c2cn(CC(=O)N3CCOCC3)c3ccccc23)cc1
    12%, 0, 0, 24, 0.7, 0.6%, -2
- C=CCNc1nc(C(=O)OCC(=O)c2cccc(Br)c2)cs1
    x, -10, -18, 5, -6.1, 1.5%, u
- CCOC(=O)C1(CC2CCCCO2)CCN(Cc2cn[nH]c2-c2cccc(F)c2)CC1 (stereo not given)
    8%, x, -11, -20, -12, -1.6%, -4
- Cc1cc(N2C(=O)C(O)=C(C(=O)c3cc4ccccc4o3)C2c2cccs2)no1 (stereo not given)
    -1%, -8, -9, 1, -2.5, 0.7%, -12
- O=c1[nH]c(-c2ccc(Cl)cc2)nc(=S)[nH]1
    14%, x, -25, 2, -6.5, 2.7%, 1
- O=C(Nc1cc(S(=O)(=O)N2CCOCC2)ccc1N1CCCC1)c1cccnc1Cl
    3%, 1, 1, -1, 6.8, 0.6%, 22
- O=C1CC(NNC(=O)c2ccccc2)C(=O)N1 (stereo not given)
    11%, 2, -4, 8, -1.6, -2.0%, 1
